Screening data: PubChem BioAssay, ICCB-Longwood Screening Facility, Harvard Medical School
MgrA-DNA mod – S. aureus MgrA-DNA binding modulation. 84,000 tested, 0.13% active. fluorescence polarization. inhibition, %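 (about 10 µg/mL by stock and volumes)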. AID 602314;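 active = above 50% in either of two replicates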;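 note: 0% = protein plus DNA without compound and 100% = DNA alone without protein; higher means less MgrA bound to DNA so lower polarization; one replicate is shown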
S aureus helic – blocks Staphylococcus aureus DNA helicase; purified S. aureus helicase, fluorescence unwinding assay; about half of the hits fall short of the stated cut; inhibition, %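 (tested at about 80 µM)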; 120,000 tested, 0.05% active; AID 485395;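 active = both duplicates at 50% or more, or one of them with a favoured structure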;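 note: 0% = mean of negative control wells and 100% = mean of positive control wells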
An asterisk follows results filed as active; / = no result given. Some of the compounds tested; the hit share may differ from the screen's.

> CCC1(CC)Cc2ccccc2C(C2=C(O)CCCC2=O)=N1
  MgrA-DNA mod: 2.2	S aureus helic: 20
> COc1ccc(-c2nnc(SCC(N)=O)n2C2CCCCC2)cc1OC
  MgrA-DNA mod: /	S aureus helic: -5
> COc1ccc(Cc2nnc(SCC(N)=O)n2Cc2ccccc2)cc1
  MgrA-DNA mod: 1.5	S aureus helic: 5
> CCN=C1S/C(=C\c2cn(CC(=O)Nc3cccc(C)c3)c3ccccc23)C(=O)N1CC
  MgrA-DNA mod: 0.7	S aureus helic: -8
> CCn1c(=O)cc(OCC(=O)Nc2cccnc2)c2ccccc21
  MgrA-DNA mod: /	S aureus helic: 8
> CN(C(=O)C1CCCN(S(=O)(=O)c2cccc3nsnc23)C1)c1ccc(Br)cc1 (configuration not stated)
  MgrA-DNA mod: /	S aureus helic: 32
> CCc1c(SCC(=O)O)nc2ccccc2c1C
  MgrA-DNA mod: -34	S aureus helic: 7
> CCC1(C)Cc2ccccc2-c2c1c(=O)n(-c1ccc(C)cc1)c1nncn21 (configuration not stated)
  MgrA-DNA mod: 1.6	S aureus helic: 2
> O=C(NCC(c1ccco1)N1CCCC1)c1ccc2ccccc2n1 (configuration not stated)
  MgrA-DNA mod: /	S aureus helic: -17
> NC(N)=NC(N)=Nc1c(F)cccc1F
  MgrA-DNA mod: 1.3	S aureus helic: /
> C=CCn1c(SCC#N)nnc1-c1ccc(Br)cc1
  MgrA-DNA mod: /	S aureus helic: -3
> CCCCN(CC)C(=O)c1cn(CC)c(=O)c2cc(OC)c(OC)cc12
  MgrA-DNA mod: -0.1	S aureus helic: 7
> CCC(=O)Nc1cccc(Oc2nc(C)cc(C)c2C#N)c1
  MgrA-DNA mod: -1.8	S aureus helic: 14
> O=C(NCCCc1ccccc1)C1c2ccccc2-c2ccccc21
  MgrA-DNA mod: 4.1	S aureus helic: 7
> CCCC1c2ccsc2CCN1C(=O)c1cc(OC)cc(OC)c1 (configuration not stated)
  MgrA-DNA mod: -2.8	S aureus helic: /

> COc1ccc(NCc2nc(-c3ccc(C)cc3)no2)cc1OC
  MgrA-DNA mod: /	S aureus helic: 24
> CC1CCCCN1C(=O)C12CC3CC(CC(C3)C1)C2 (configuration not stated)
  MgrA-DNA mod: 1.5	S aureus helic: 0
> CCOC(=O)c1c(C)oc2nc(CN3c4cccc5cccc(c45)S3(=O)=O)nc(N)c12
  MgrA-DNA mod: /	S aureus helic: -9
> O=C(NC1CC1)c1cc2n(n1)CCCN(Cc1ccccc1)C2=O
  MgrA-DNA mod: /	S aureus helic: 3
> CCC(Oc1ccccc1)C(=O)Nc1nncs1 (configuration not stated)
  MgrA-DNA mod: -2.5	S aureus helic: 5
> Cc1ccccc1-n1nnnc1SCC(=O)N/N=C/c1ccccc1O
  MgrA-DNA mod: /	S aureus helic: 7
> N#Cc1cccc(NC(=O)/C=C/c2cccc3ccccc23)c1
  MgrA-DNA mod: -3.2	S aureus helic: 25
> O=C(O)/C=C/C(=O)NC1Cc2ccccc2C1
  MgrA-DNA mod: -0.5	S aureus helic: /
> COc1ccc(NCC(=O)n2c(C)c(C)c3ccccc32)cc1
  MgrA-DNA mod: 0.6	S aureus helic: 0
> Cc1ccccc1-c1noc(CCC(=O)NC(C)C)n1
  MgrA-DNA mod: /	S aureus helic: 3
> Cc1nc(C(F)(F)F)ccc1C(=O)NN1CCOCC1
  MgrA-DNA mod: 4.9	S aureus helic: /
> O=C(c1ccccc1Cl)N1CCN(c2ccc(N3CCCCCC3)nn2)CC1
  MgrA-DNA mod: /	S aureus helic: 7
> Cc1onc(-c2ccccc2)c1C(=O)Sc1ccc(C(F)(F)F)cn1
  MgrA-DNA mod: /	S aureus helic: 1
> S=C(NC1CCCCC1)N1CCN(Cc2ccc3c(c2)OCO3)CC1
  MgrA-DNA mod: -1.2	S aureus helic: 8
> O=C1c2ccccc2C(=O)N1CCc1nn[nH]n1
  MgrA-DNA mod: -1.6	S aureus helic: 5

> CCOC(=O)c1sc(SC)c2c1CC(c1ccccc1)CC2=O (configuration not stated)
  MgrA-DNA mod: 0.7	S aureus helic: /
> CC(=O)Nc1ccc(NC(=O)C(C)n2c(C)c3cnn(-c4ccccc4)c(=O)c3c2C)cc1 (configuration not stated)
  MgrA-DNA mod: /	S aureus helic: -14
> CC(C)c1ccccc1N=Cc1ccc2c(c1)OCO2
  MgrA-DNA mod: -0.7	S aureus helic: -15
> COC(=O)C1=C(C)NC2=C(C(=O)c3ccccc32)C1c1ccc(Br)o1 (configuration not stated)
  MgrA-DNA mod: /	S aureus helic: -40
> COc1ccc(C(=O)N(CN2CCCC2=O)c2nccs2)cc1OC
  MgrA-DNA mod: /	S aureus helic: 9
> COc1ccc(-c2cc(=Nc3ccc(C)cc3C)c3cc(O)ccc3o2)cc1
  MgrA-DNA mod: 0.0	S aureus helic: 9
> O=C(N/N=C1/CCS(=O)(=O)c2ccc(F)cc21)c1ccccn1
  MgrA-DNA mod: /	S aureus helic: 0
> Oc1ccc(C(=S)N2CCN(Cc3ccccc3)CC2)cc1
  MgrA-DNA mod: 5.0	S aureus helic: 1
> OC1(c2ccccc2)CCC2C1CCC2(O)c1ccccc1 (configuration not stated)
  MgrA-DNA mod: 0.2	S aureus helic: /
> Cc1ccc(Cn2ccc(NC(=O)c3cc(-c4ccc(F)cc4)on3)n2)cc1
  MgrA-DNA mod: /	S aureus helic: 14
> O=C(NCCN1CCOCC1)c1ccc2c(Cl)c3c(nc2c1)CCC3
  MgrA-DNA mod: /	S aureus helic: 20
> O=C(O)CCN(Cc1ccco1)S(=O)(=O)c1cccc2nsnc12
  MgrA-DNA mod: /	S aureus helic: -10
> COC(=O)C1=C(N)CC(c2ccccc2)S1 (configuration not stated)
  MgrA-DNA mod: -1.3	S aureus helic: /
> CN1C(=O)c2ccccc2N2C(=O)CCC12C(=O)OCc1ccc(C#N)cc1 (configuration not stated)
  MgrA-DNA mod: /	S aureus helic: -3
> CC(C)(C)C(=O)Nc1nc(COc2ccccc2)cs1
  MgrA-DNA mod: /	S aureus helic: 3

Structures listed so far with a COOH group, in the order listed:
> CCc1c(SCC(=O)O)nc2ccccc2c1C
  MgrA-DNA mod: -34	S aureus helic: 7
> O=C(O)/C=C/C(=O)NC1Cc2ccccc2C1
  MgrA-DNA mod: -0.5	S aureus helic: /
> O=C(O)CCN(Cc1ccco1)S(=O)(=O)c1cccc2nsnc12
  MgrA-DNA mod: /	S aureus helic: -10

Next part
structure,MgrA-DNA mod,S aureus helic
Oc1ccc(NCc2cccs2)cc1,/,5
O=C(COc1ccc(Cl)cc1Cl)Nn1c(-c2cccc([N+](=O)[O-])c2)nc2ccccc2c1=O,0.6,/
O=C(O)c1nnc(Cl)c2ccccc12,-2.7,15
CN(Cc1nnc(-c2ccc(Cl)cc2)o1)S(=O)(=O)c1ccc2ccccc2c1,/,7
O=[N+]([O-])c1ccc(OCCCOc2ccc([N+](=O)[O-])cc2)cc1,0.0,/
Cc1cccc(C(=O)NCCCn2ccnc2)c1,0.5,6
CN(C)S(=O)(=O)c1ccc2oc(SCN3C(=O)c4ccccc4C3=O)nc2c1,/,-2
O=c1cc(C(F)(F)F)[nH]c2ccccc12,-0.3,/
CCOC(=O)C/C(C)=N/c1ccnn1-c1ccccc1,-0.8,7
COC(=O)CN(C(=O)c1ccccc1[N+](=O)[O-])C(C)(C)C,-1.3,/
CCOC(=O)Cn1nnnc1CN(CCc1ccc(OC)c(OC)c1)Cc1cc2c(C)ccc(C)c2[nH]c1=O,3.0,5
COc1ccc(N2CCN(CCNc3nc4ccccc4n4c(C)nnc34)CC2)cc1,/,10
O=C(NCCCc1nc2ccccc2[nH]1)c1cccs1,/,-1
CN1CCN(C(=O)C2C3C=CC(C3)C2C(=O)O)CC1 (configuration not stated),5.3,5
O=c1cc(CSc2nnnn2-c2ccccc2)nc(Nc2ccc(F)cc2)[nH]1,/,12
CCOC(=O)C(C)Sc1ncnc2c1nnn2-c1ccc(OC)cc1 (configuration not stated),-2.1,-6
COc1ccc(Nc2nc3ccc(C)cc3nc2Nc2ccc(OC)cc2)cc1,-2.3,9
CCOC(=O)C1=C(N)OC2=C(C(=O)CCC2)C1c1ccc(OC)cc1 (configuration not stated),-0.3,-2
O=C(O)CCCC(=O)N1CCc2ccccc21,/,-6
Nc1c(C(=O)Nc2ccccc2)sc2nc3c(cc12)C(=O)CCC3,/,-57
Cc1ccc(S(=O)(=O)N=S(Cc2ccccc2)Cc2ccccc2)cc1,-0.2,/
Cc1cccc(N(C2C=CS(=O)(=O)C2)S(=O)(=O)c2ccccc2)c1 (configuration not stated),-0.4,12
NCc1nc2cc3ccccc3cc2[nH]1,/,2
S=C(SCc1ncon1)N1CCSCC1,1.3,/
CCOC(=O)c1nnn(CC(=O)Nc2ccc(C)cc2Cl)c1C(=O)OCC,/,12
CC(=O)N[C@@H](CCCN=C(N)N)C(=O)O,-8.0,/
C=CCn1c(SCC(=O)Nc2ccc(C(=O)OC(C)C)cc2)nnc1-c1ccco1,/,10
Nn1c(=O)c2ccccc2n2c(SCC(=O)N(c3ccccc3)c3ccccc3)nnc12,-0.1,5
C=CCn1c(SCC(=O)N(C)C2CCS(=O)(=O)C2)nc2ccccc2c1=O (configuration not stated),/,-4
OCCNc1ncnc2sc3c(c12)CCCC3,-2.0,/
COc1ccc(SCC(=O)N(c2ccccc2)C2CCS(=O)(=O)C2)cc1 (configuration not stated),/,-10
O=C(CSc1ccccn1)NCC(=O)c1ccccc1,1.3,16
CS/C(N)=N/C(N)=Nc1ccc(Cl)cc1,-1.5,/
COc1ccc2c(c1)c(CC(=O)Nc1nnc(-c3ccccc3)o1)c(C)n2C(=O)c1ccc(Cl)cc1,/,1
Cc1cccc(N(C)S(=O)(=O)c2c(C(=O)N3CCCCC3)c(C)n(C)c2C)c1,/,24
Cc1cc(C)c(N(CC(O)Cn2c3ccccc3c3ccccc32)S(C)(=O)=O)c(C)c1 (configuration not stated),2.0,1
COc1ccc(Oc2ccc(C(C)=O)cc2)cc1,-0.9,/
Cc1ccc(NC(=O)CSc2ncn(-c3ccccc3)n2)cc1,/,7
O=c1onc(-c2ccccc2)c2ccccc12,3.9,/
Cc1cc(=O)oc2cc(NC(=S)NCCN3CCCCC3)ccc12,-0.8,10
Cc1ccc(C(=O)N/C(=C/c2ccco2)C(=O)Nc2nccs2)cc1,-0.2,1
Cn1c(C(C#N)C(=O)c2ccc(Cl)c(S(=O)(=O)N3CCCCCC3)c2)nc2ccccc21 (configuration not stated),/,-44
Cc1cc(=O)[nH]c(SCC(=O)C(C)(C)C)n1,-2.5,/
COC(=O)c1ccccc1Sc1c(-c2ccccc2)nc2ncccn12,/,-2
CCCCOc1ccc(C2=N/C(=C\c3ccc(OC(C)=O)c(OC(C)=O)c3)C(=O)O2)cc1,-0.6,/
Cc1ccccc1N(C)C(=O)NCc1noc2ccccc12,/,-30
Cc1nn(-c2ccccc2)c(C)c1NC(=O)COC(=O)/C=C/c1cccs1,/,-4
O=C(COC(=O)CSc1nnc(-c2ccc(Cl)cc2)o1)NC1CCS(=O)(=O)C1 (configuration not stated),/,-7
COc1cc2c(cc1OC)C(COc1cc(C)cc(C)c1)NCC2 (configuration not stated),/,-13
COc1ccc(CCN(C)CCCN2CC(c3ccccc3)CC2=O)cc1OC (configuration not stated),/,-22

Compound profiles (already shown). Order of values: MgrA-DNA mod | S aureus helic
CCOC(=O)C/C(C)=N/c1ccnn1-c1ccccc1 across the screens: -0.8 | 7
O=C(CSc1ccccn1)NCC(=O)c1ccccc1 across the screens: 1.3 | 16

(next part)
structure,MgrA-DNA mod,S aureus helic
CC1(C)Cc2c(sc(NC(=O)C3CC3)c2C(N)=O)C(C)(C)N1,/,12
O=S(=O)(NC1(C(F)(F)F)Oc2ccccc2O1)c1ccccc1,-8.2,-14
N#CC1=C(N)C(C#N)(C#N)C(c2ccco2)C2CN(Cc3ccccc3)CC=C12 (configuration not stated),20,-15
Cc1cc(C)cc(N2C(N)=NC(N)=NC2c2ccccc2F)c1 (configuration not stated),/,9
Cc1nc(N(CC(=O)OC2CC(C)CCC2C(C)C)S(=O)(=O)c2ccc(N)cc2)c(C)n1N (configuration not stated),/,-11
CCOC(=O)CC(=O)c1ccccc1,/,-4
Cc1ccc(C(=O)COC(=O)c2ccccc2O)cc1,/,2
C[C@@H]1C(=O)CC[C@@]2(CO)CCC(C)(C)C[C@@H]12,-1.0,-1
CSCCn1c(C(C)(C)C)cc(C(=O)O)c1C,-4.4,/
COc1cc(/C=C2/SC(=S)N(CC(=O)O)C2=O)cc(OC)c1,0.0,/

At a glance, 4 of the compounds above.
structure,MgrA-DNA mod,S aureus helic
Cc1ccc(C(=O)N/C(=C/c2ccco2)C(=O)Nc2nccs2)cc1,-0.2,1
Cn1c(C(C#N)C(=O)c2ccc(Cl)c(S(=O)(=O)N3CCCCCC3)c2)nc2ccccc21 (configuration not stated),/,-44
Cc1cc(=O)[nH]c(SCC(=O)C(C)(C)C)n1,-2.5,/
COC(=O)c1ccccc1Sc1c(-c2ccccc2)nc2ncccn12,/,-2

Five compounds from above, arranged by their value in MgrA-DNA mod, descending:
structure,MgrA-DNA mod,S aureus helic
N#CC1=C(N)C(C#N)(C#N)C(c2ccco2)C2CN(Cc3ccccc3)CC=C12 (configuration not stated),20,-15
COc1cc(/C=C2/SC(=S)N(CC(=O)O)C2=O)cc(OC)c1,0.0,/
C[C@@H]1C(=O)CC[C@@]2(CO)CCC(C)(C)C[C@@H]12,-1.0,-1
CSCCn1c(C(C)(C)C)cc(C(=O)O)c1C,-4.4,/
O=S(=O)(NC1(C(F)(F)F)Oc2ccccc2O1)c1ccccc1,-8.2,-14
